VDR inhibitor – Inhibitors of the vitamin D receptor (VDR): qHTS | 400,000 tested, 0.93% active | Potency, µM, for the others: max response, negative = inhibition, hits mostly inhibitors | Vitamin D3 receptor (Homo sapiens), P11473 | VDR-SRC2-3 peptide fluorescence polarization, 2 h; active means well fitted inhibition curve with a large enough effect; inconclusive means small, poorly fitted or top-dose-only effect, or another doubt; inactive means no such curve, though single readings can be large or run the other way; further: series mostly up to about 120 µM
Target sequence (P11473 whole entry, looked up): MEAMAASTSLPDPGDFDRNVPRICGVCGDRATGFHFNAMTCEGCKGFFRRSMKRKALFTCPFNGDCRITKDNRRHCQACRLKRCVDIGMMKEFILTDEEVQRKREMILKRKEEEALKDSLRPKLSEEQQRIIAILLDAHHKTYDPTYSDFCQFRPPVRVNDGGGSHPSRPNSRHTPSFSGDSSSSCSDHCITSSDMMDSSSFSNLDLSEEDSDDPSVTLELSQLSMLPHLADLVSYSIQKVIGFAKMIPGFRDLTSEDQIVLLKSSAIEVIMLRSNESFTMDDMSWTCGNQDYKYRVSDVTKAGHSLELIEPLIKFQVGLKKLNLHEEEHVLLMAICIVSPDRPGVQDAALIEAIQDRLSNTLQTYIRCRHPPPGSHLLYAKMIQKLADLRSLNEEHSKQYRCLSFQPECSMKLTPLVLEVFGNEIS
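Fluorescence polarization assay measuring small-molecule disruption of VDR binding to the coregulator peptide SRC2-3. Compounds were pin-transferred (23 nl) into the reagent mix and incubated 2 h at room temperature before reading.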
Active calls of the source: *; ? = inconclusive; & = joins results of further samples; [ ] = remark or other dose. On the % scale 0 is the no-effect control and ±100 the full control effect; potency means the concentration at half of the fitted maximal effect. This is a subset (hit frequency here may not be typical).

Structure	VDR inhibitor
c1ccc(-c2nnc(SCc3nc4ccccc4[nH]3)o2)cc1	-8.3%
CCCN=C1N(CC)C[C@@H]2[C@@H]3C(=O)N(C)C(=O)[C@@H]3[C@](CC)(C(=O)OC)N12	-4.1%
CCOC(=O)c1ccccc1NC(=O)Cn1c(=O)n(Cc2nc(-c3ccccc3)no2)c(=O)c2ccccc21	8.1%
COc1cc(NC(=S)N2CCCC(C)C2)cc(OC)c1OC (centres undefined)	-20.6%
COc1ccc(S(=O)(=O)N(CC(=O)NCCSc2ccccc2)c2ccc(C)cc2)cc1	7.9%
Cc1csc2ncnc(N3CCN(C(=S)Nc4ccc(C(F)(F)F)cc4)CC3)c12	-11.7%
CC1(C)CC(=O)C=C(N2CCNCC2)C1	-15.7%
CCOC(=O)c1cnc(C(C)(C)C)[nH]c1=O	4.5%
Cc1cnc(CNc2nc(-c3ccc(C(=O)N(C)C)cc3)nc3ccccc23)cn1	-13.8%
Nc1c(-c2nc(-c3cccs3)no2)nnn1-c1cccc(Cl)c1	2.4%
CCOc1ccc(-c2cc(NC(=O)Nc3ccccc3C(F)(F)F)c(C(=O)OC)s2)cc1	9.0%
Cc1ccc(C)c(OCCCC(=O)Nc2ccccc2C(N)=O)c1	-14.6%
CC(C(=O)N1CCCC1)N1CCN(S(=O)(=O)c2ccccc2)CC1 (centres undefined)	-28.1%
Nc1cc2c(cc1Cl)-c1ccccc1C2=NO	-1.0%
CCOc1ccc(NC(=O)Cn2nc(-c3ccncc3)ccc2=O)cc1	1.9%
COc1ccc(CCNC(=O)c2ccc(CS(=O)(=O)Cc3cccc(C)c3)o2)cc1OC	-6.8%&4.3%
COc1cc(/C=C2\SC(=S)N(NC(=O)c3ccccc3OC)C2=O)ccc1O	2.7%
O=C1CCCN2N=C(SCC(=O)N3CCCCC3)SC2=N1	?
Cn1c(SCc2ccccc2C#N)nc2ccccc2c1=O	?
CCOC(=O)c1ccccc1NC(=O)c1sc2ncn(Cc3cccc(F)c3)c(=O)c2c1C	14.1%
CC(C)c1nc2ccc(Br)cn2c1NC1CCCC1	-8.7%
O=C(Nc1ccccc1)c1ccc(S(=O)(=O)NCc2cccnc2)cc1	-2.2%
CC1(C)CC2(CCO1)OC(=O)CC2C(=O)Nc1cccc2ccccc12 (centres undefined)	1.5%
CC1CCN(CCC(=O)Nc2nccs2)CC1	8.8%
C/C(=N\NC(=O)C1CC1(C)c1ccccc1)c1ccco1 (centres undefined)	-14.1%
CCCCCCCNC(=O)CC(NS(=O)(=O)c1ccc(NC(C)=O)cc1)C(C)C (centres undefined)	3.8%
CC(=O)Nc1ccc2nc(NC(=O)COc3ccccc3)sc2c1	0.3%
CCc1cc2cc(OC)ccc2nc1SCC(=O)Nc1cc(OC)c(OC)cc1C(=O)O	?
COc1ccc(S(=O)(=O)N2CCCC(C(=O)NCc3ccccn3)C2)cc1Cl (centres undefined)	-1.7%
Cc1ccc(Cl)cc1N1CCN(C(=O)C2CCC(CNS(=O)(=O)c3cccs3)CC2)CC1 (centres undefined)	-8.9%
Cc1ccc(C2(c3ccc(C)cc3)CC2C(=O)NCc2cccnc2)cc1 (centres undefined)	-9.4%
S=c1[nH]nc(-c2ccncc2)n1/N=C/C=C/c1ccccc1	-7.4%
O=C(N/N=C1\CCCc2ccccc21)c1ccc([N+](=O)[O-])cc1Cl	-2.7%
Cc1ccc2c(CN(C)Cc3ccc(OC(F)F)cc3)cc(=O)oc2c1C	-26.3%
OC(COCC1COc2ccccc2O1)CN1CCCCC1 (centres undefined)	-9.4%
C=CCNC(=O)C1CCN(S(=O)(=O)c2cccs2)CC1	1.5%
Cc1cccc(CN2CCN(CC(=O)O)C2=O)c1	4.1%
O=C(N/N=C/c1ccco1)c1cccc(NC(=O)c2cccc(Cl)c2)c1	13.4%
CCc1ccc(N2CCn3c2nc2c3c(=O)n(Cc3c(F)cccc3Cl)c(=O)n2C)cc1	10.1%
CCC(C(=O)OCCN(CC)CC)c1ccccc1 (centres undefined)	-10.1%&1.0%
Cc1nn(CC(=O)N2CCCC2)c(=O)c2cc3cc(F)ccc3n12	1.3%
CCN(CC(=O)Nc1ccc(NC(C)=O)cc1)C(=O)/C=C/c1cn(-c2ccccc2)nc1-c1ccc(C)cc1	-2.7%
Cc1cc(C(=O)CN2C(=O)C(=O)N(C3CCCC3)C2=O)c(C)n1-c1ccc(F)cc1	-12.1%
CS(=O)(=O)N(CC(=O)NCc1ccc2c(c1)OCO2)c1ccccc1	-20.7%
C=CCN(c1ccccc1)S(=O)(=O)c1cccc(C(=O)NCc2ccco2)c1	-21.6%
O=C(COC(=O)/C=C/c1ccco1)Nc1ccccc1	-4.1%
COC(=O)C1=C(C)N(Cc2ccccc2)C(=O)/C1=C\c1ccco1	?
C/C(CC(=O)Nc1ccccc1Br)=N\NC(=O)C(=O)N1CCCC1	-12.9%
O=C(Nc1nc2c(s1)CCc1ccccc1-2)c1ccco1	11.2%
Cc1nc2ccc(S(=O)(=O)NCC(=O)N3CCC(C)CC3)cc2s1	3.4%
COc1ncc2nc(CCc3ccccc3)c(=O)n(-c3ccccc3)c2n1	-9.3%
CCN(C[C@H]1N[C@@](CC)(C(=O)OC)[C@H]2C(=O)N(C)C(=O)[C@@H]12)C(=O)c1ccccc1	-15.3%
Cc1ccc(Cl)cc1N1CCN(C(=O)CCc2nnc3n(C)c(=O)c4ccccc4n23)CC1	-6.3%
O=[N+]([O-])c1cccc(CN2C[C@@]34C=C[C@@H](C[C@@H]3S2(=O)=O)O4)c1	-15.6%
O=C(c1cc(-c2cccc(Cl)c2)nc2ccccc12)N1CCN(c2ccccn2)CC1	-9.5%
CCOc1ccc(N(C)S(=O)(=O)c2cc(-c3cc(C)no3)ccc2OC)cc1	29.9%&14.6%
CC(=O)Nc1ccc(NC(=S)NC(=O)c2cc3ccccc3o2)cc1	0.2%
Cc1cc(SCC(=O)N(C)C2CCS(=O)(=O)C2)nc2c(C)cccc12 (centres undefined)	2.7%
CCCN1CCN(C(=O)Cn2nc(C)n3c(cc4c(OC)cccc43)c2=O)CC1	34.4%[activator]
O=C1CCC[C@@H]2Cc3nc4ccc(Cl)cc4cc3[C@@H]3CCN1[C@H]23	-7.5%

Next section.
Structure	VDR inhibitor
COCCn1c(=O)cnc2cnc(N3CCNCC3)nc21	8.3%
O=C1C=C(c2ccccc2)C(c2ccccc2)C1O (centres undefined)	?
C=CCC(C)(O)c1cccc(C(F)(F)F)c1 (centres undefined)	-3.0%
O=C(c1ccc(N2CCCC2)c([N+](=O)[O-])c1)N1CCN(S(=O)(=O)c2ccccc2)CC1	2.6%
COc1cc(-c2n[nH]c(=S)n2Cc2ccccc2)cc(OC)c1OC	2.4%
Cn1c(C=O)c(C#CC(C)(C)O)c2ccccc21	-9.0%
O=C(Nc1ccc(F)c(F)c1)c1cc(S(=O)(=O)NCc2ccc3c(c2)OCO3)ccc1F	24.7%
COc1ccc(C(=N/O)/C(=N/O)c2ccc(OC)cc2)cc1	4.1%
COc1cccc(CNC(=O)C2CCCN(S(C)(=O)=O)C2)c1 (centres undefined)	1.1%
Cc1c(C(=O)OC2CCCCCC2)[nH]c2c1C(=O)CC(c1ccccc1Cl)C2 (centres undefined)	-13.3%
CC1=CC[C@@]23CCCN2C(=O)CCC[C@H]3C1	-7.0%&11.4%
COc1ccc(CC(=O)Nc2ccc(S(=O)(=O)Nc3cc(OC)nc(OC)n3)cc2)cc1	-1.4%
CN(CCc1ccccc1)C(=O)c1ccc(NC(=O)Cc2ccc(NC(=O)C3CCN(C(=O)c4ccccc4)CC3)cc2)cc1	-21.0%
N/C(=N\OC(=O)c1ccc(Cl)cc1[N+](=O)[O-])c1ccccn1	-9.8%
Cn1c(=O)c([N+](=O)[O-])c(NCc2ccc3c(c2)OCO3)c2ccccc21	-17.0%
NC(=O)CN1C(=O)C(O)(CC(=O)/C=C\c2ccc3c(c2)OCO3)c2ccccc21 (centres undefined)	-12.0%
O=C(c1ccc(N2CCN(CCO)CC2)nc1)N1CCOCC1	-8.2%
Cc1ccnc2nc(C(=O)OCC(=O)N(Cc3ccccc3)C(C)(C)C)nn12	-9.5%
CN(C)c1ccc(C2CC(=O)NC3=C2C(=O)CC(C)(C)C3)cc1 (centres undefined)	8.4%
COc1ccc2c(c1OC)C(=O)O[C@H]2C1c2c(cc3c(c2OC)OCO3)CCN1C (some centres undefined)	2.3%
COCCN(CCOC)C(=O)c1ccc(NS(=O)(=O)c2ccc3c(c2)OCCO3)cc1	5.5%
CCCCN(CCCC)C(=O)c1cc(Cl)ccc1[N+](=O)[O-]	-1.4%
COC(CC(=O)NNC(=S)Nc1ccc(Cl)cc1)OC	4.1%
COC(=O)C1(C(=O)OC)NOC2C(=O)N(N(C)c3ncc(C(F)(F)F)cc3Cl)C(=O)C21 (centres undefined)	-23.5%
COc1ccccc1C(=O)C1CCCN(C(=O)c2cccc(Cn3cccn3)c2)C1 (centres undefined)	-12.1%
CCCn1c(=O)n(-c2cc(Cl)c(OC)cc2OC)c(=O)c2c3c(sc21)CN(C(C)=O)CC3	-8.2%
CS(=O)(=O)NCCNc1ccc(Cl)cc1[N+](=O)[O-]	-9.1%
CC(Sc1nc(N)cc(N)n1)C(=O)Nc1ccc(N2CCOCC2)cc1 (centres undefined)	10.0%
O=c1c(Br)c(N2CCCCC2)cnn1-c1ccccc1	3.2%
C/C=C/C(=O)Nc1cccc(C2=NOC3(C2)C[C@@H](C(N)=O)N(C(=O)C(c2ccccc2)c2ccccc2)C3)c1 (some centres undefined)	7.9%

Four structures from above, arranged by formula weight, low to high:
Structure	VDR inhibitor
COc1ccc(C(=N/O)/C(=N/O)c2ccc(OC)cc2)cc1	4.1%
COC(CC(=O)NNC(=S)Nc1ccc(Cl)cc1)OC	4.1%
N/C(=N\OC(=O)c1ccc(Cl)cc1[N+](=O)[O-])c1ccccn1	-9.8%
Cn1c(=O)c([N+](=O)[O-])c(NCc2ccc3c(c2)OCO3)c2ccccc21	-17.0%

Next section.
Structure	VDR inhibitor
COc1ccc(CCNC(=O)CCCCn2c(=O)c3ccccc3n(Cc3cccc(C)c3)c2=O)cc1OC	-2.5%
Cc1ccc(-n2ncc(C(=O)N3CCN(c4ccccn4)CC3)c2C2CCN(C(=O)OC(C)(C)C)CC2)cc1	20.0%
O=c1c2ccccc2c(-c2ccccc2)nn1Cc1c(Cl)cccc1Cl	8.6%
OC(COCc1cccs1)CN1CCN(c2cccc(C(F)(F)F)c2)CC1 (centres undefined)	5.8%
Cc1cccc(NC(=O)C2CCN(c3nnc(C)c4c(C)n(-c5ccccc5)nc34)CC2)c1C	5.5%
CCOC(=O)c1ccc(-n2c(O)c(/C=N/NC(=O)C3COc4ccccc4O3)c3ccccc3c2=O)cc1 (centres undefined)	-2.8%
NC(=O)N1N=C2/C(=C/c3ccccc3)CCCC2C1c1ccccc1 (centres undefined)	-16.3%
CCCCN1C(=O)/C(=C2\SC(N3CCOCC3)=NC2=O)c2ccccc21	-9.1%
Cc1cccc2nc(Cn3c(=O)n(CCC(=O)NCc4ccco4)c(=O)c4ccccc43)cc(=O)n12	-1.1%
COc1ccc2oc(=N)c(C(=O)Nc3ccc(C)cc3)cc2c1	-9.3%
Cc1ccc(S(=O)(=O)c2nnn3c2nc(N2CCN(c4ccccn4)CC2)c2ccccc23)cc1C	-12.2%
COc1ccc(S(=O)(=O)N/N=C(/C)c2ccco2)cc1	1.3%
CCSc1nnc(-c2cccs2)o1	4.8%
Cc1ccc(S(=O)(=O)Nc2cccc3c2O[C@@H](CN(C)C(=O)Nc2ccc4c(c2)OCO4)[C@H](C)CN([C@@H](C)CO)C3=O)cc1	1.6%
COc1ccccc1C(=O)NNC(=O)c1csc(N2CCOCC2)n1	6.6%
COC(=O)[C@@H](Cc1c[nH]c2ccccc12)NC(=O)CCC(=O)c1ccc(Br)cc1	26.5%
O=C(NNC(=O)c1ccccc1-c1ccccc1C(=O)O)c1cccc([N+](=O)[O-])c1	-6.0%
CC(C)c1ccccc1	21.0%
CC1CCCC(C)N1C(=O)COC(=O)c1cccs1 (centres undefined)	1.6%
O=C(OCc1cccc(F)c1)c1ccc2c(=O)n3c(nc2c1)CCC3	3.0%
O=C(CCCNS(=O)(=O)c1cccs1)N1CCc2ccccc2C1	-17.0%
CC(C)C(=O)Nc1ncc2c(n1)CC(c1cccs1)CC2=O (centres undefined)	22.3%
Nc1nc(C(=O)N2CCOCC2)nn1S(=O)(=O)c1ccc(Cl)cc1	?
O=C(CSc1n[nH]c(-c2ccncc2)n1)Nc1ccccc1Cl	7.5%
O=Cc1cc([N+](=O)[O-])ccc1N1CCOCC1	-7.9%
COC(=O)c1c(-n2cnnn2)sc(C)c1C	8.2%
CCS(=O)(=O)N1Cc2ccccc2CC1C(=O)Nc1nnc(SCc2ccc(F)cc2)s1 (centres undefined)	-19.9%
Cc1ccc(C)n1-c1sc2c(c1C#N)CCC(C)C2 (centres undefined)	?
C/C(=N/NC(=O)c1ccoc1C)c1cccc(NC(=O)C2CC2)c1	?

High-throughput results (PubChem)
